# Mtb hypoxia inh = inhibitors of hypoxia-regulated fluorescent reporter in Mycobacterium tuberculosis; fluorescence inhibition, % (no concentration beside the values); M. tuberculosis hypoxia-regulated fluorescent reporter, fluorescence; 0.1% of 300,000 active;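 active = 35 to 45% if threefold the growth effect, above 45% if 1.5-fold the growth effect; inactive = the rest, general growth blockers included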;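 note: wells of about 50 µL received 100 nL stock; 0% = vehicle wells and 100% = reference inhibitor wells; whole bacteria with a GFP reporter of the hypoxia response; strong numbers were not always called active; many hits fall short of the cut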
# BJeLR lethal = BJeLR cell viability loss | BJeLR (HRASV12) viability, CellTiter-Glo ATP luminescence, 48 h; reference of the scale not given here | inhibition, % (test concentration not listed) | 0.17% of 300,000 active;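 active = replicate mean above 50%; inconclusive = above 50% but judged a plate artefact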;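 note: 50 nL library stock added to about 25 µL; numbers are from one replicate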
# PrP UTR inh = inhibition of PrP 5' UTR reporter expression. cell-based PrP 5' UTR mRNA reporter, plate reader. inhibition, % (concentration not given with the values). 0.35% of 340,000 active. AID 488862;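 active = every replicate at 50% or more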;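 note: 0 = median of the neutral control wells; tested in H4 reporter cells; numbers are from one replicate; inactives centre near -14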
# Sa ugtP lethal = compounds lethal to S. aureus RN4220 ugtP deletion mutant; OD600 growth, 16 h; some inactives read as strong as hits; growth inhibition, % (test concentration not listed); 0.54% of 330,000 active; AID 1259309;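 active = z-score under -3 and OD600 up to 0.15 on both plates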;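 note: plate controls were untreated wells for no effect and antibiotic for full effect; wells of about 80 µL received 100 nL stock; the first replicate is given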
# Autofluor counter = compound fluorescence in toxin protease inhibitor counterscreen; compound autofluorescence counterscreen, microsphere flow cytometry; stronger effect = higher value; fluorescence intensity (concentration not given with the values); 3.1% of 360,000 active;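 active = at least 3 SD above the mean of all compounds, about 16000 in these data; inconclusive = too few beads counted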;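 note: 100 nL of 1 mM stock went into each well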
# Sa RN4220 lethal = S. aureus RN4220 growth inhibition; OD600, 16 h; inhibition, % (test concentration not listed); 0.33% of 330,000 active; AID 1259311;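 active = z-score of -3 or lower and OD600 up to 0.18 on both plates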;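 note: plate controls were untreated cells for no effect and reference antibiotic for full effect; stock transfer was 100 nL into about 80 µL; one replicate is shown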
# Mtb hypoxia inh growth = also measured in Mtb hypoxia inh; calls as there; growth inhibition, %; measured here: M. tuberculosis growth (absorbance);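 0% = vehicle and 100% = reference antibiotic; read after six days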
# Starred values were filed as active, the others as inactive; ? = inconclusive; nt = no result given; & = joins results of further samples.
SMILES,Mtb hypoxia inh,Mtb hypoxia inh growth,BJeLR lethal,PrP UTR inh,Sa ugtP lethal,Autofluor counter,Sa RN4220 lethal
C=CCn1c(CSCc2ccccc2)nnc1SCC(=O)N1CCN(c2ccccc2)CC1,4,9,10,-3,-1,10008,0.8
CCOC(=O)c1cnc2c(Cl)cccc2c1NCCN(C)C,nt,nt,1,7,5,3792,-0.3
O=c1[nH]c2cnccc2n1-c1ccccc1,nt,nt,-8,5,0,5269,2.1
COc1ccc2c(c1)c([C@@H]1[C@H](C)[C@H]3CCCC[C@H]3CN1S(=O)(=O)c1ccc(C)cc1)cn2C,-7,2,nt,-1,-3,3323,-1.3
Cc1ccc(C(=O)OCC(=O)N(C)c2ccccc2)cc1C,-5,-4,0,-8,1,3551,2.5
CCC[C@@H]1C[C@@]1(CCC)[C@@H](NC(=O)c1ccccc1)c1ccc(C(=O)OC)cc1,11,3,25,-24,7,4030,-11
COc1ccc(Br)c(-c2nnc(CS(=O)(=O)c3ccccc3)o2)c1,1,-3,-6,-52,11,3179,1.9
CCOC(=O)c1ccc(NC(=O)CSc2nnc(C3CCCCC3)n2C)cc1,-5,2,-9,-33,-2,9559,-1.9
CCCOCCOC(=O)C1=C(C)NC(=O)NC1c1cc(Cl)c(O)c(OC)c1 (stereo not given),6,8,3,-2,7,7980,2.3
COc1cccc(/C=N/NC(=O)CC(=O)NCCc2ccccc2)c1OC,nt,nt,17,-15,nt,2377,nt
COc1ccc(CC(=O)Nc2ccc(C)c(S(=O)(=O)N3CCCCCC3)c2)cc1,-1,6,nt,nt,1,5434,1.6
CCCC(=O)NCCc1cc2ccc(C)c(C)c2[nH]c1=O,-5,8,10,-18,10,4255,6.1
Cc1nn(-c2ccc(F)cc2)c(Cl)c1C=NNC(=O)c1cccs1,3,-3,nt,nt,-1,nt,8.1
COC(=O)c1ccc(C(=O)N=c2sccn2C)cc1,-9,-2,10,-62,-7,5018,3.2
CCCc1nc2nc(C)c(NS(=O)(=O)c3ccc4c(c3)CCCC4)c(=O)n2[nH]1,15,32,-10,-22,14,3736,4.6
Cc1cc(N2C(=O)C(O)=C(C(=O)c3ccc(C)o3)C2c2ccc(OCc3ccccc3)cc2)no1 (stereo not given),nt,nt,-8,-20,nt,4508,nt
O=C(NC(=S)Nc1ccccc1N1CCOCC1)c1ccc(-c2cccc(Cl)c2)o1,3,4,10,-6,-11,9232,17
COc1ccc(N2C(=O)[C@@H]3[C@H](C2=O)[C@H]2c4ccccc4C=CN2[C@@H]3C(C)=O)cc1,2,7,nt,-3&-19,3,2564,1.4
C/C(N)=C(/C#N)C(=O)COc1ncnc2ccccc12,18,12,1,-11,-3,4344,1.0
CCCCS(=O)CC(O)COc1ccc(C(C)(C)C)cc1 (stereo not given),-4,-2,-3,1,-1,15410,0.1
O=C(CCS(=O)(=O)c1ccccc1)N1CCN(c2ccccc2)CC1,9,4,-7,-60,1,4471,-1.8
O=C(CSc1nc2cc(Cl)ccc2c(=O)n1Cc1ccco1)Nc1ccc(S(=O)(=O)N2CCOCC2)cc1,5,7,-14,-33,-21,1984,3.3
CCOc1ccc(NS(=O)(=O)c2ccc(C(=O)N3CCCCCC3)cc2)cc1,-14,-14,-4,-16,3,5854,-3.3
CCC(C)(C)n1nnnc1C(c1ccc(Cl)cc1)N1CCN(C)CC1 (stereo not given),nt,nt,-4,-14,0,4177,0.8
Cc1cccc(C)c1NC(=O)CN(C)C(=O)c1ccc(COc2ccccc2)cc1,nt,nt,10,-29,nt,?,nt
SMILES,Mtb hypoxia inh,Mtb hypoxia inh growth,BJeLR lethal,PrP UTR inh,Sa ugtP lethal,Autofluor counter,Sa RN4220 lethal
CCOP(=O)(OCC)C(O)c1cccnc1 (stereo not given),12,-3,-19,-12,6,6143,1.8
Cn1nc(NC(=O)CC23CC4CC(CC(C4)C2)C3)c2c(F)cccc21,2,5,-13,-1,-3,nt,-0.1
CCN(CC)c1ccc(/C=N/N2CCN(Cc3ccccc3Cl)CC2)cc1,nt,nt,-1,2,nt,4178,nt
CC(=O)c1ccc(NC(=O)c2ccc(S(=O)(=O)c3ccccc3)cc2)cc1,9,7,0,-9,3,2097,5.2
Cc1ccc(NC(=O)COc2ccc(Br)cc2C)cc1,13,7,1,-19,14,7764,25
COc1ccc(NC(=O)CN2C(=O)CSc3ccc(S(=O)(=O)N4CCCC4)cc32)cc1OC,6,0,0,-10,4,5235,0.4
COc1cccc(Cn2cc(/C=N/NC(=O)c3cc(O)cc(O)c3)c3ccccc32)c1,nt,nt,2,14,nt,5958,nt
CCn1nc(C)cc1-c1n[nH]c(=S)n1N,5,3,-1,0,1,3136,3.9
CCOC(=O)C=c1sc(=Cc2ccc(C#N)cc2)c(=O)n1CC(=O)Nc1cccc(C)c1C,6,7,nt,nt,4,nt,-3.9
CCCCC(=O)NC1=NC(=O)C(C)(C)S1,-3,4,-19,-17,1,10103,1.1
CC(OC(=O)C1=COCCO1)C(=O)NC(C)c1ccc(Cl)cc1Cl (stereo not given),-2,0,6,-15,14,5126,6.9
CC1(C)CC2CC(C)(CN2C(=O)NC(=O)c2ccccc2)C1 (stereo not given),3,1,13,-41,-8,9386,6.6
COc1ccc(NC(=O)C2CCN(C(=O)C3CC(=O)N(c4ccc(C)cc4)C3)CC2)cc1 (stereo not given),3,19,-9,-6,1,3674,0.6
CC(=O)c1cc(-c2ccccc2)n(CCC(=O)NC(C)(C)C)c1C,-12,-20,5,-14,-3,2345,-2.2
CCNC(=O)Nc1nc2ccccc2s1,10,16,4,-44,4,3892,-1.0
CCOCCCNC(=O)/C(C#N)=C/c1ccc(C)o1,18,11,-4,-10,1,4554,12
NS(=O)(=O)c1ccc(CCNC(=S)NC2CCCCC2)cc1,6,-15,-19,-28,7,3607,1.3
CC(NC(=O)c1noc2c1CCCCC2)c1ccccc1 (stereo not given),2,1,-1,-23,12,4231,-0.6
O=C(NCc1ccc(Cl)cc1)C1CCC(=O)N(C2CCCCCC2)C1 (stereo not given),2,5,2,-2,13,4410,3.7
Cc1cccn2c(=O)nc(SCC(=O)NCc3ccccc3)nc12,1,15,0,-14,9,?,4.2
O=C(Nc1ccc(N2CCOCC2)cc1)Nc1ccc(Cl)c(Cl)c1,-16,7,9,-52,-39,17169*,-5.0
COc1cccc(N2CCN(C(=O)c3ccc(=O)oc3)CC2C)c1 (stereo not given),-1,4,-5,-16,-11,3126,-2.0
COc1ccc(NC(=O)CN2CCN(CC(=O)Nc3ccc(F)cc3)CC2)cc1Cl,3,0,-2,-19,10,3007,0.9
O=C1N(c2ccccc2)C(c2ccccc2)N2CCCN12 (stereo not given),-12,8,-2,-12,0,4465,-1.1
O=C(O)c1ccc(N2C(=O)CSC2=S)cc1,7,16,5,-28,5,4460,2.8
SMILES,Mtb hypoxia inh,Mtb hypoxia inh growth,BJeLR lethal,PrP UTR inh,Sa ugtP lethal,Autofluor counter,Sa RN4220 lethal
Nc1c(C(=O)NCC2CCCO2)sc(=S)n1-c1ccccc1 (stereo not given),9,9,-5,-1,-6,2480,1.8
C/C(=N\NC(=O)C1COc2ccccc2O1)c1ccccn1 (stereo not given),nt,nt,-3,32,nt,1993,nt
Cn1c(O)c(C(=NCCN2CCCCC2)c2ccccc2Cl)c(=O)n(C)c1=O,-1,-2,5,-4,1,10752,2.9
CC(Cc1ccccc1)=NNC(=O)CNC(=O)COc1ccccc1,0,-5,nt,nt,-2,nt,0.6
O=C(Nc1ccc2c(c1)OCCO2)N1CCN(c2ccc(F)cc2)CC1,7,3,11,-10,1,14950,0.5
COc1ccc(C2CC(C(F)(F)F)n3nc(C(=O)O)c(Cl)c3N2)cc1OC (stereo not given),nt,nt,7,-6,-4,2138,-3.0
Cc1ccc(-c2nn(CCC(=O)O)cc2/C=C\C(=O)c2ccc(Br)cc2)cc1,8,15,0,-17,7,4216,9.4
COc1ccc(CCNC(=O)COc2cc(C)cc3oc(=O)c(C)c(C)c23)cc1OC,nt,nt,nt,24,-2,5554,1.1
CCOC(=O)c1cccc(NC(=O)CN(c2ccc(C)cc2)S(=O)(=O)c2c(C)noc2C)c1,2,0,-4,-8,11,3487,5.2
COc1ccc(N2C(=O)CC(Sc3nnc(-c4ccccc4)o3)C2=O)cc1 (stereo not given),14,2,-3,-22,-8,9482,16
Nc1nn(S(=O)(=O)c2ccccc2)cc1-c1ccc([N+](=O)[O-])cc1,11,9,-10,-21,11,2405,11
CC(CNC(=O)Cn1cnc2c(NCc3ccccc3)ncnc21)c1ccccc1 (stereo not given),1,2,nt,-4,-5,3889,-3.9
OCCN(CCO)CC(O)COc1ccc2c(c1)OCO2 (stereo not given),nt,nt,-5,-3,0,2660,0.5
COc1ccccc1CNC(=O)N1CCN(c2ccccc2C)CC1,-5,1,-3,-15,9,3866,2.7
O=C(CSc1nnc2ncccn12)N1CCCCCC1,8,6,-4,-18,-1,23133*,4.7
CN(C)c1ccc(NC(=O)c2ccc3nsnc3c2)cc1,8,5,-8,-211,0,22463*,4.1
O=C(NC1CCCC1)C(c1ccc(F)cc1)N(C(=O)Cc1cccs1)c1ccc2c(c1)OCCO2 (stereo not given),11,2,16,-4,7,10505,0.3
COc1cc(/C=N/NC(=S)Nc2cccc(Cl)c2C)ccc1OCC(=O)N1CC(C)OC(C)C1 (stereo not given),nt,nt,1,-18,nt,2432,nt
COc1cc(C)c(Cl)cc1S(=O)(=O)NCC1CCCO1 (stereo not given),nt,nt,-4,-20,-4,4086,1.8
CCC(C)CCN1C(Nc2ccccc2)=NCC1C (stereo not given),4,4,nt,nt,-4,nt,6.3
Cc1cc(=O)[nH]c2c1cnn2C(C)c1ccccc1 (stereo not given),2,-3,3,-14,1,3730,-1.3
CC1(C)N=C(N)NC(Nc2ccccc2Cl)=N1,7,4,-3,-11,5,4648,4.9
O=C(Nc1ccccc1Br)C1CC(=O)N(c2ccc3c(c2)OCCO3)C1 (stereo not given),9,-3,4,-3,8,?,3.0
Cc1ccc(C(=O)N2CCN(CCNC(=O)C(=O)NCc3ccc(Cl)cc3)CC2)cc1,5,3,11,0,14,5669,3.3
COc1ccc(OCC(=O)Nc2cccc(NC(=O)COc3ccc(OC)cc3)n2)cc1,2,0,0,-35,0,7877,1.7

# Profiles as entered above. Order of values: Mtb hypoxia inh	Mtb hypoxia inh growth	BJeLR lethal	PrP UTR inh	Sa ugtP lethal	Autofluor counter	Sa RN4220 lethal
# Results for `COc1cc(C)c(Cl)cc1S(=O)(=O)NCC1CCCO1` (stereo not given) : nt	nt	-4	-20	-4	4086	1.8
# Results for `OCCN(CCO)CC(O)COc1ccc2c(c1)OCO2` (stereo not given) : nt	nt	-5	-3	0	2660	0.5
# Results for `O=C(CSc1nnc2ncccn12)N1CCCCCC1` : 8	6	-4	-18	-1	23133*	4.7
# Results for `O=C(Nc1ccc2c(c1)OCCO2)N1CCN(c2ccc(F)cc2)CC1` : 7	3	11	-10	1	14950	0.5

# The list goes on.
SMILES,Mtb hypoxia inh,Mtb hypoxia inh growth,BJeLR lethal,PrP UTR inh,Sa ugtP lethal,Autofluor counter,Sa RN4220 lethal
O=C(C(Cl)Cl)N1CCN(Cc2ccc3c(c2)OCO3)CC1,3,5,-2,-8,6,3817,3.6
C=CCn1c(=O)/c(=C\c2ccccn2)s/c1=C(/C#N)C(=O)NCC1CCCO1 (stereo not given),nt,nt,-5,-19,nt,4397,nt
CC(C)(C)S(=O)(=O)C(C#N)=NNc1ccc(Cl)cc1,-1,5,nt,nt,33,nt,32
Cc1nc(C)c(C(=O)Nc2ccc(Oc3ccccc3)cc2)o1,8,1,5,-12,8,19915*,5.9
CCN(C(=O)COc1ccccc1[N+](=O)[O-])C1CCS(=O)(=O)C1 (stereo not given),6,5,3,-26,5,2649,5.0
CC(C)Sc1nc2ccccc2n2cnnc12,8,5,16,5,6,3833,3.8
O=C(CCCOc1ccccc1)Nc1ccc(Cl)c(S(=O)(=O)N2CCOCC2)c1,10,8,nt,-5,-10,4137,0.8
COC(=O)[C@H](Cc1ccccc1)NC(=O)N1Cc2ccccc2C[C@H]1C(=O)OC,-15,6,2,3,-6,3682,2.3
Cc1ccc(C(=O)Nc2nc(=O)n(C(=O)c3ccccc3C)s2)cc1,nt,nt,-9,-20,7,2617,20
COc1ccccc1C(=O)O/N=C(\c1ccccc1)c1ccncc1,nt,nt,5,-16,nt,3270,nt
Cc1ccc(/C=C2\SC(=S)N(CCCC(=O)Nc3ccc(O)cc3)C2=O)cc1,-9,-6,8,16,-7,4934,3.0
O=C(Cn1cnc([N+](=O)[O-])c1)NC1CCCC1,-8,-17,-6,-8,-1,2075,7.7
